Compound activity as filed in PubChem.
A1 apoptosis 2: blocks A1, raising caspase activity. MEF A1-2A-BIM cells, caspase-Glo luminescence, 3 h; percent of clofoctol response, DMSO zero. caspase activation, % (concentration not given with the values). 24,000 tested, under 10 active; in the data active means caspase activation above about 5.9%;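 further: wells of about 30 µL received 50 nL stock; the first replicate is given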
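system = A1-2A-BIM-expressing MEF cells | quantity = 2500 MEF cells/well | dosing = 50 nL compound per well, pinned | schedule = overnight cell settling, then 3 h compound exposure, 37 °C | signal = luminescence from DEVD-luciferin Caspase-Glo reagent, 1:1 in 50 mM HEPES, 1 h RT | read-out = Caspase-3/7 activation, seen as rise in luminescence signal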
* hit, by the source's call; & = joins results of further samples. These rows are one share of the data; count on the stated rates, not on these rows.

The first 6 records, ahead of the listing:
compound | A1 apoptosis 2
CCCN(C)C[C@@H]1OCCCC[C@@H](C)Oc2ccc(NS(=O)(=O)c3ccc(Cl)cc3)cc2C(=O)N([C@H](C)CO)C[C@@H]1C | 1.0
COc1ccc(NC(=O)N(C)C[C@H]2Oc3ccc(NC(=O)Cc4cn(C)c5ccccc45)cc3CC(=O)N([C@H](C)CO)C[C@H]2C)cc1 | -0.4
C[C@H]1CN([C@@H](C)CO)C(=O)c2cc(NS(=O)(=O)c3cccs3)ccc2O[C@H]1CN(C)C(=O)Nc1ccc(C(F)(F)F)cc1 | -0.8
COc1ccc(S(=O)(=O)N(C)C[C@@H]2OCCCC[C@H](C)Oc3ccc(N(C)C)cc3C(=O)N([C@H](C)CO)C[C@H]2C)cc1 | 1.2
Cc1ccc(S(=O)(=O)N(C)C[C@H]2Oc3ccc(NC(=O)C4CC4)cc3CC(=O)N([C@@H](C)CO)C[C@H]2C)cc1 | 0.9
C[C@H]1CN([C@@H](C)CO)C(=O)Cc2cc(NC(=O)Nc3ccc(C(F)(F)F)cc3)ccc2O[C@@H]1CN(C)CC1CCCCC1 | 0.4

The listing (from the top)
compound | A1 apoptosis 2
CCCN(C)C[C@@H]1OCCCC[C@@H](C)Oc2ccc(NS(=O)(=O)c3ccc(Cl)cc3)cc2C(=O)N([C@H](C)CO)C[C@@H]1C | 1.0
COc1ccc(NC(=O)N(C)C[C@H]2Oc3ccc(NC(=O)Cc4cn(C)c5ccccc45)cc3CC(=O)N([C@H](C)CO)C[C@H]2C)cc1 | -0.4
C[C@H]1CN([C@@H](C)CO)C(=O)c2cc(NS(=O)(=O)c3cccs3)ccc2O[C@H]1CN(C)C(=O)Nc1ccc(C(F)(F)F)cc1 | -0.8
COc1ccc(S(=O)(=O)N(C)C[C@@H]2OCCCC[C@H](C)Oc3ccc(N(C)C)cc3C(=O)N([C@H](C)CO)C[C@H]2C)cc1 | 1.2
Cc1ccc(S(=O)(=O)N(C)C[C@H]2Oc3ccc(NC(=O)C4CC4)cc3CC(=O)N([C@@H](C)CO)C[C@H]2C)cc1 | 0.9
C[C@H]1CN([C@@H](C)CO)C(=O)Cc2cc(NC(=O)Nc3ccc(C(F)(F)F)cc3)ccc2O[C@@H]1CN(C)CC1CCCCC1 | 0.4
C[C@H](CO)N1C[C@H](C)[C@H](CN(C)C(=O)Nc2ccc(C(F)(F)F)cc2)Oc2c(NC(=O)c3cnccn3)cccc2C1=O | 0.5
C[C@H](CO)N1C[C@H](C)[C@H](CN(C)Cc2ccccc2)Oc2c(NC(=O)Nc3cccc4ccccc34)cccc2C1=O | -0.7
C[C@@H]1CN([C@@H](C)CO)C(=O)c2cccc(NC(=O)CCCCCC(=O)Nc3ccccc3N)c2O[C@H]1CN(C)Cc1ccc2c(c1)OCO2 | 0.2
C[C@@H]1CN([C@H](C)CO)C(=O)c2cc(NC(=O)CCC(F)(F)F)ccc2O[C@@H](C)CCCCO[C@@H]1CN(C)Cc1ccc(C(=O)O)cc1 | 0.1
Cc1noc(C)c1NC(=O)Nc1ccc2c(c1)C(=O)N([C@H](C)CO)C[C@H](C)[C@H](CN(C)Cc1ccncc1)O2 | 0.6
C[C@@H]1CN([C@H](C)CO)C(=O)Cc2cc(NC(=O)Cc3cn(C)c4ccccc34)ccc2O[C@H]1CN(C)Cc1ccc(C(=O)Nc2ccccc2N)cc1 | 0.3
C[C@H]1CN([C@@H](C)CO)C(=O)c2cccc(NS(=O)(=O)c3ccc(Cl)cc3)c2O[C@H]1CN(C)C(=O)Nc1ccc(C(F)(F)F)cc1 | 1.9
C[C@@H]1CN([C@@H](C)CO)C(=O)c2cc(NS(=O)(=O)c3cccs3)ccc2O[C@@H]1CN(C)C(=O)Nc1ccccc1 | -0.4
C[C@@H]1CN([C@@H](C)CO)C(=O)c2cccc(N(C)C)c2O[C@@H]1CN(C)Cc1ccc(Cl)c(Cl)c1 | -0.4
CNC[C@@H]1OCCCC[C@H](C)Oc2ccc(NC(=O)Nc3c(C)noc3C)cc2C(=O)N([C@@H](C)CO)C[C@@H]1C | 0.0
COc1ccc(NC(=O)Nc2ccc3c(c2)C(=O)N([C@@H](C)CO)C[C@H](C)[C@@H](CN(C)Cc2ccc(C(F)(F)F)cc2)OCCCC[C@H](C)O3)cc1 | -0.5
COc1ccccc1CN(C)C[C@H]1OCc2cn(nn2)CCCC(=O)N([C@H](C)CO)C[C@H]1C | -0.1
Cc1ccc(S(=O)(=O)N(C)C[C@H]2Oc3ccc(NC(=O)c4ccncc4)cc3C(=O)N([C@@H](C)CO)C[C@@H]2C)cc1 | 1.5
CC(C)NC(=O)Nc1ccc2c(c1)C(=O)N([C@@H](C)CO)C[C@@H](C)[C@H](CN(C)Cc1ccc(-c3ccccc3)cc1)O2 | -0.1
C[C@@H]1CN([C@@H](C)CO)C(=O)c2cc(NC(=O)Nc3ccc(C(F)(F)F)cc3)ccc2O[C@@H]1CN(C)Cc1ccc(Cl)c(Cl)c1 | -0.3
C[C@H]1CN([C@@H](C)CO)C(=O)CCCn2nncc2CO[C@H]1CN(C)S(C)(=O)=O | -0.2
CNC[C@@H]1OCCCC[C@@H](C)Oc2ccc(NS(=O)(=O)c3ccccc3)cc2C(=O)N([C@H](C)CO)C[C@@H]1C | 0.5
C[C@@H]1CN([C@H](C)CO)C(=O)c2cccc(NC(=O)C3CC3)c2O[C@@H]1CN(C)S(=O)(=O)c1ccc(F)cc1 | -0.9
COc1ccc(NC(=O)N(C)C[C@H]2Oc3ccc(NS(=O)(=O)c4cccs4)cc3CC(=O)N([C@@H](C)CO)C[C@H]2C)cc1 | 1.3
COc1ccc(CN(C)C[C@H]2Oc3ccc(NS(=O)(=O)c4cn(C)cn4)cc3CC(=O)N([C@H](C)CO)C[C@@H]2C)cc1 | 1.8
C[C@@H]1CCCCO[C@@H](CN(C)C)[C@H](C)CN([C@@H](C)CO)C(=O)c2cc(NC(=O)Nc3ccc(C(F)(F)F)cc3)ccc2O1 | 1.2
C[C@@H]1CCCCO[C@H](CN(C)Cc2ccccc2)[C@@H](C)CN([C@@H](C)CO)C(=O)c2cc(NS(=O)(=O)c3cccs3)ccc2O1 | -0.3
C[C@H](CO)N1C[C@H](C)[C@H](CN(C)S(C)(=O)=O)Oc2ncc(C#Cc3ccccc3)cc2C1=O | 1.8
CNC[C@H]1OCCCC[C@@H](C)Oc2ccc(NS(=O)(=O)c3ccc(C)cc3)cc2C(=O)N([C@@H](C)CO)C[C@H]1C | 0.3
Cc1ccc(S(=O)(=O)Nc2ccc3c(c2)C(=O)N([C@@H](C)CO)C[C@@H](C)[C@@H](CN(C)C(=O)Nc2cccc4ccccc24)O3)cc1 | 0.6
Cc1noc(C)c1NC(=O)Nc1ccc2c(c1)C(=O)N([C@@H](C)CO)C[C@@H](C)[C@H](CN(C)C(=O)NC(C)C)OCCCC[C@@H](C)O2 | -0.1
C[C@@H]1CCCCO[C@@H](CN(C)C(=O)CCCN(C)C)[C@H](C)CN([C@@H](C)CO)C(=O)c2cc(NC(=O)CCCN(C)C)ccc2O1 | -1.3
Cc1ccccc1S(=O)(=O)N(C)C[C@H]1OCc2cn(nn2)CCCC(=O)N([C@H](C)CO)C[C@@H]1C | 0.2
C[C@@H]1CN([C@H](C)CO)C(=O)c2cc(N(C)C)ccc2O[C@@H](C)CCCCO[C@@H]1CN(C)S(=O)(=O)c1cn(C)cn1 | -0.2
Cc1noc(C)c1NC(=O)N(C)C[C@H]1Oc2ccc(NC(=O)CCCN(C)C)cc2C(=O)N([C@H](C)CO)C[C@H]1C | 1.0
CC(C)NC(=O)N(C)C[C@H]1Oc2ccc(NC(=O)Nc3ccc(F)cc3)cc2CC(=O)N([C@H](C)CO)C[C@H]1C | 0.2
COc1ccc(NC(=O)N(C)C[C@@H]2Oc3c(NC(=O)c4nc5ccccc5s4)cccc3C(=O)N([C@@H](C)CO)C[C@H]2C)cc1 | -0.3
C[C@H](CO)N1C[C@H](C)[C@H](CN(C)S(=O)(=O)c2cn(C)cn2)Oc2ccc(NC(=O)CCCCCC(=O)Nc3ccccc3N)cc2CC1=O | 0.5
O=C(NO)c1ccc(C(=O)N/N=C/c2ccc3ccccc3c2O)cc1 | 0.1
CNC[C@H]1Oc2ccc(NC(=O)Nc3cccc4ccccc34)cc2CC(=O)N([C@@H](C)CO)C[C@@H]1C | -0.4
C[C@H](CO)N1C[C@H](C)[C@@H](CN(C)S(=O)(=O)c2ccc(Cl)cc2)Oc2ccc(NS(=O)(=O)c3cn(C)cn3)cc2CC1=O | -0.1
COc1ccc(S(=O)(=O)Nc2ccc3c(c2)C(=O)N([C@@H](C)CO)C[C@H](C)[C@@H](CN(C)S(C)(=O)=O)OCCCC[C@@H](C)O3)cc1 | 0.5
C[C@@H]1CCCCO[C@H](CN(C)S(=O)(=O)c2cn(C)cn2)[C@H](C)CN([C@@H](C)CO)C(=O)c2cc(NC(=O)Nc3ccc(F)cc3)ccc2O1 | 0.0
C[C@@H]1CN([C@@H](C)CO)C(=O)Cc2cc(NS(=O)(=O)c3ccccc3)ccc2O[C@H]1CN(C)CC1CC1 | 1.4
C[C@@H]1CN([C@H](C)CO)C(=O)c2cc(NS(C)(=O)=O)ccc2O[C@@H](C)CCCCO[C@H]1CN(C)C(=O)C1CCCCC1 | 0.6
C[C@H](CO)N1C[C@H](C)[C@H](CN(C)S(=O)(=O)c2ccc(F)cc2)OCCCC[C@H](C)Oc2ccc(NC(=O)c3ccncc3)cc2C1=O | 0.5
COc1ccc(CN(C)C[C@@H]2Oc3ccc(NS(=O)(=O)c4ccc(F)cc4)cc3C(=O)N([C@@H](C)CO)C[C@H]2C)cc1 | -0.1
C[C@@H]1CCCCO[C@@H](CN(C)C(=O)CCCN(C)C)[C@H](C)CN([C@H](C)CO)C(=O)c2cc(NC(=O)Nc3cccc4ccccc34)ccc2O1 | 1.8
O=C(NCc1ccccc1)C1=C[C@@H](c2ccc3c(c2)OCO3)C[C@@H](OCCCCO)O1 | 0.6&-0.6

Cc1noc(C)c1S(=O)(=O)Nc1ccc2c(c1)C(=O)N([C@H](C)CO)C[C@H](C)[C@@H](CN(C)CC1CC1)O2
- A1 apoptosis 2 = -0.6

Cc1ccc(S(=O)(=O)Nc2ccc3c(c2)C(=O)N([C@H](C)CO)C[C@@H](C)[C@H](CN(C)Cc2ccc4c(c2)OCO4)OCCCC[C@H](C)O3)cc1
- A1 apoptosis 2 = 0.6

C[C@H](CO)N1C[C@H](C)[C@H](CN(C)Cc2ccc(Oc3ccccc3)cc2)Oc2c(NC(=O)Nc3ccc(F)cc3)cccc2C1=O
- A1 apoptosis 2 = -0.7

Cc1noc(C)c1S(=O)(=O)Nc1ccc2c(c1)C(=O)N([C@@H](C)CO)C[C@H](C)[C@@H](CN(C)C(=O)Nc1cccc3ccccc13)O2
- A1 apoptosis 2 = 0.1

Cc1noc(C)c1NC(=O)N(C)C[C@@H]1Oc2c(NC(=O)C3CC3)cccc2C(=O)N([C@H](C)CO)C[C@@H]1C
- A1 apoptosis 2 = 0.4

CC(C)NC(=O)N(C)C[C@H]1Oc2ccc(NC(=O)C3CCCCC3)cc2C(=O)N([C@@H](C)CO)C[C@H]1C
- A1 apoptosis 2 = 1.3

C[C@H](CO)N1C[C@H](C)[C@@H](CN(C)Cc2ccc(C(=O)O)cc2)OCCCC[C@H](C)Oc2ccc(NC(=O)c3ccncc3)cc2C1=O
- A1 apoptosis 2 = -1.1

CC(C)NC(=O)Nc1ccc2c(c1)C(=O)N([C@H](C)CO)C[C@@H](C)[C@@H](CN(C)Cc1ccc(C(F)(F)F)cc1)OCCCC[C@H](C)O2
- A1 apoptosis 2 = -1.5

C[C@@H]1CCCCO[C@H](CN(C)S(=O)(=O)c2cn(C)cn2)[C@@H](C)CN([C@H](C)CO)C(=O)c2cc(NC(=O)c3ccccc3)ccc2O1
- A1 apoptosis 2 = 0.4

Cc1ccc(S(=O)(=O)N(C)C[C@H]2Oc3ccc(NC(=O)Nc4ccc(C(F)(F)F)cc4)cc3C(=O)N([C@@H](C)CO)C[C@H]2C)cc1
- A1 apoptosis 2 = 0.0

Cc1noc(C)c1NC(=O)Nc1ccc2c(c1)C(=O)N([C@@H](C)CO)C[C@H](C)[C@@H](CN(C)Cc1ccc(C(F)(F)F)cc1)OCCCC[C@H](C)O2
- A1 apoptosis 2 = 0.4

C[C@@H]1CN([C@H](C)CO)C(=O)c2cc(NS(=O)(=O)c3cn(C)cn3)ccc2O[C@H]1CN(C)S(=O)(=O)c1cn(C)cn1
- A1 apoptosis 2 = -0.2

CCCN(C)C[C@H]1OCCCC[C@@H](C)Oc2ccc(NC(=O)NC(C)C)cc2C(=O)N([C@@H](C)CO)C[C@H]1C
- A1 apoptosis 2 = 0.4

Cc1noc(C)c1NC(=O)Nc1ccc2c(c1)C(=O)N([C@@H](C)CO)C[C@H](C)[C@H](CN(C)S(=O)(=O)c1ccc(Cl)cc1)OCCCC[C@@H](C)O2
- A1 apoptosis 2 = -1.8

C[C@@H]1CN([C@@H](C)CO)C(=O)c2cc(NC(=O)CCC(F)(F)F)ccc2O[C@@H](C)CCCCO[C@@H]1CN(C)C(=O)Cc1ccccc1
- A1 apoptosis 2 = -1.4

C[C@H](CO)N1C[C@H](C)[C@@H](CN(C)C(=O)c2ccccc2)OCCCC[C@H](C)Oc2ccc(NC(=O)Nc3ccc(F)cc3)cc2C1=O
- A1 apoptosis 2 = 0.6

COc1ccc(S(=O)(=O)N(C)C[C@@H]2Oc3ccc(NS(=O)(=O)c4ccc(Cl)cc4)cc3C(=O)N([C@H](C)CO)C[C@H]2C)cc1
- A1 apoptosis 2 = -0.6

CNC[C@@H]1Oc2ccc(NC(=O)CCN3CCOCC3)cc2CC(=O)N([C@H](C)CO)C[C@@H]1C
- A1 apoptosis 2 = -0.2

C[C@H](CO)N1C[C@H](C)[C@H](CN(C)Cc2ccc3c(c2)OCO3)Oc2ccc(NS(C)(=O)=O)cc2CC1=O
- A1 apoptosis 2 = -0.2
